# Screening data as filed in PubChem BioAssay.
# PK Bst: modulators of Bacillus stearothermophilus pyruvate kinase; 1.2% of 51,000 active; partly purified Bacillus stearothermophilus pyruvate kinase, luminescence ATP production; ribose 5-phosphate activator present at AC10; Potency, µM; in the data active means potency below about 11 µM; inconclusive means mostly about 12 µM to 25 µM; inactive means weaker than that;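 the screen sought inhibitors and activators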;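 also: potency is read from the fitted curve at half-maximal effect; scaled between full activation by ribose 5 phosphate and full inhibition by luteolin; about four in five hits inhibit and the cells do not say which; series up to 57 µM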
# TsaE inh: displaces an ADP probe from E. coli YjeE (TsaE). P0AF67. purified YjeE, fluorescence polarisation of a bound ADP probe. Potency, µM. 0.05% of 71,000 active; active = well fitted falling curve; inconclusive = weaker or top-dose-only fall, or a rising curve; inactive = flat or poorly fitted curve;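 also: top concentration of the series not given in the record; excess ADP was the control for the full effect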
#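 Fluorescence polarization of a BODIPY Texas Red–ADP probe (2 uM) bound to purified YjeE (10 uM) was read after 15 min room-temperature incubation with compounds. Loss of polarization marks inhibitors; ADP serves as titrated control.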
# The depositor's hits bear a star; i = inactive; ? = inconclusive; . = no result given.
SMILES,PK Bst,TsaE inh
c1ccc(CN2CC[C@@H](CNc3ncnc4ccccc34)C2)cc1,.,i
CC(=O)c1c(Nc2ccc3c(c2)OCCO3)oc(C)cc1=O,.,i
CC(=Nc1ccc2c(c1)nc(CO)n2C)C1=C(O)CC(C)(C)CC1=O,>57,i
CCOc1ccc(NC(=O)C2CC(=O)N(C)C(=Nc3ccc4c(c3)OCO4)S2)cc1 (centres undefined),>57,i
Cc1ccc(SCc2cc(=O)n3[nH]c(C)nc3n2)cc1,.,i
CCOC(=O)Cn1c(=O)c2c(nc3n2CCS3)n(C)c1=O,>57,i
O=S1(=O)CCN2C(Cc3ccc(SC(F)F)cc3)=CSC2=N1,>57,i
O=C(CN1CCN(c2ccccn2)CC1)N1c2ccccc2Sc2ccc(C(F)(F)F)cc21,>57,i
O=C1CC(c2cccs2)CC2=C1C(c1ccccc1)n1ncnc1N2 (centres undefined),>57,i
COc1ccc(CC(=O)OCc2cc3ccc(C)cc3[nH]c2=O)cc1,>57,i
COc1ccc(-c2cc(C(=O)NCc3ccc(Cl)cc3)no2)cc1OC,>57,i
CCOCCCn1c(=N)c(C(N)=S)cc2c(=O)n3cccc(C)c3nc21,>57,i

# By substructure, those above with an aryl thioether with sulfur outside any ring
SMILES,PK Bst,TsaE inh
Cc1ccc(SCc2cc(=O)n3[nH]c(C)nc3n2)cc1,.,i
O=S1(=O)CCN2C(Cc3ccc(SC(F)F)cc3)=CSC2=N1,>57,i

# Additional compounds:
SMILES,PK Bst,TsaE inh
C=CCSc1nnc(-c2cccnc2)o1,.,i
Cc1cccc(OCC(O)Cn2c(=N)n(CCN3CCCCC3)c3ccccc32)c1 (centres undefined),>57,i
CN(CC(=O)NC1CCCCC1)S(=O)(=O)c1cccc2cccnc12,.,i
O=C(NCc1cccnc1)c1cccc(F)c1,.,i
N#Cc1c(-c2ccco2)cc(-c2ccccn2)nc1N,>57,i
CC(=O)Nc1nc(C)nc(-c2ccccc2OC(C)=O)n1,.,i
Cc1ccc(-c2csc3nnc(SCc4csc(C)n4)n23)cc1,>57,i
COc1ccccc1NC(=O)CN1CCN(CC(=O)Nc2ccc3c(c2)OCO3)CC1,>57,i
Cc1nnc2sc(-c3ccc(NC(=O)CSc4ccc(Cl)cc4)cc3)nn12,>57,i
COc1cccc(NS(=O)(=O)c2ccc(S(=O)(=O)N3CCOCC3)cc2)c1,>57,i
O=C(C1CCN(S(=O)(=O)c2cccc3nsnc23)CC1)N1CCCc2ccccc21,.,i
C/C(Cl)=C/Cn1c(NCCCn2ccnc2)nc2c1c(=O)[nH]c(=O)n2C,>57,i
C[n+]1ccccc1/C=N\O,.,i
CCOCCCN(C(=O)Cn1nnc2ccccc21)C(C(=O)NCc1ccco1)c1ccncc1 (centres undefined),>57,i
CCCCc1nc(SCC(=O)Nc2ccc(S(N)(=O)=O)cc2)n[nH]1,>57,i
CC(C)N1C(=O)C2C(C(=O)NCc3ccccc3)C3C=CC2(O3)C1C(=O)NC(C)(C)C (centres undefined),>57,i
CN(C)c1nc2n(c(=O)n1)CCO2,>57,i
COc1ccc(Cn2nnnc2C(c2ccccc2)N2CCN(C3CCCC3)CC2)cc1 (centres undefined),>57,i
CC1CC(C)CN(c2ncc3c(n2)CC(c2ccccc2Cl)CC3=O)C1 (centres undefined),>57,i
COc1ccc(C(C)N2CC34C=CC(O3)C(C(=O)OCC(C)C)C4C2=O)cc1 (centres undefined),.,i
CC(N=Cc1cccc(O)c1O)c1ccccc1 (centres undefined),.,i
CCCN(CCC)c1nc2ccccc2nc1C(C#N)C(=O)OCCOC (centres undefined),>57,i
C=CCN(CC(=O)NCC1CCCO1)C(=O)CCC(=O)Nc1cc(C)on1 (centres undefined),>57,i
NC1(C(=O)NC2(C(=O)O)CCCC2)CCCC1,.,i

# Whole records from above. Order of screens: PK Bst, TsaE inh
# `CC(N=Cc1cccc(O)c1O)c1ccccc1` (centres undefined) is listed as ., i
# `CC1CC(C)CN(c2ncc3c(n2)CC(c2ccccc2Cl)CC3=O)C1` (centres undefined) is listed as >57, i
# `COc1ccc(Cn2nnnc2C(c2ccccc2)N2CCN(C3CCCC3)CC2)cc1` (centres undefined) is listed as >57, i
# `CCOCCCN(C(=O)Cn1nnc2ccccc21)C(C(=O)NCc1ccco1)c1ccncc1` (centres undefined) is listed as >57, i
# `CN(C)c1nc2n(c(=O)n1)CCO2` is listed as >57, i

# Next section.
SMILES,PK Bst,TsaE inh
Cc1ccc2c(c1)nnn2C1CCN(CC(=O)NCCc2nc3ccccc3[nH]2)CC1,>57,i
COc1ccc(-c2noc(CCC(=O)NCCCN3CCC(Cc4ccccc4)CC3)n2)cc1,>57,i
COC(=O)c1ccccc1NC(=O)c1cc(C2CC2)on1,.,i
Cc1ccc(NC(=O)CSc2nnc(COc3ccc(C#N)cc3)n2-c2ccccc2)cc1C,>57,i
CCOC(=O)CC1=NC(=O)CS1,>25.6,.
Cc1cc(=O)n2nc(N3CCCC(C(=O)N4CCOCC4)C3)sc2n1 (centres undefined),>57,i
COc1ccc(CNC(=O)c2ccc(NC(=O)C3CCCO3)cc2)cc1 (centres undefined),>57,i
CC(=O)Nc1c2c3c(cccc3n(C)c1=O)C(=O)c1ccccc1-2,?,i
COCCCNc1nc2c(c(=O)n(C)c(=O)n2C)n1Cc1cccc(OC)c1,>25.6,.
OC1CCCN(Cc2cccc3ccccc23)C1 (centres undefined),.,i
CC(CN1CCCCC1)OC(=O)c1ccc2c(c1)OCO2 (centres undefined),>57,i
CC(c1ccccc1)n1cc(C(=O)NCc2ccccn2)nn1 (centres undefined),>57,i
COc1ccccc1CCn1c(=O)c(-c2ccc(F)c(F)c2)nc2cncnc21,.,i
NCC(O)COc1ccc2c(c1)OCO2 (centres undefined),>57,i
CC(C)(C)c1ccc(C(=O)N2CCC(C(=O)NCc3ccncc3)CC2)cc1,>57,i
CC(=O)OCP(C)(=O)COC(C)=O,>57,i
Cc1ccc(S(=O)(=O)N2CCN(C(=O)COC(=O)COc3ccccc3)CC2)cc1,>57,i
CS(=O)(=O)N1CCN(C(=O)c2ccncc2)CC1,>57,i
CC(=O)c1sc(NC(=O)c2ccccc2F)nc1C,.,i
Cc1nc2cc(NC(=O)COc3ccc(C#N)cc3)ccc2n1-c1ccccc1,>57,i
c1ccc(-c2nc[nH]c2-c2ccccc2)cc1,>57,i
Cc1ccc(-c2nn3c(C)nnc3s2)cc1NCc1c(F)cccc1Cl,>57,i
O=C(CCn1c(=O)oc2ccccc21)Nc1nccs1,>57,i
FC(F)(F)c1ccccc1-c1ccc2ncnc(NCc3cccs3)c2c1,.,i
CCC/C=C(\CCC)C(NS(=O)(=O)c1cccc2cccnc12)c1ccc(-c2ccccc2)cc1 (centres undefined),.,i
CCCCOc1ccc(NC2=NC3(CCCC3)N=C(N)N2)cc1,>57,i
Cc1ccc(C(=O)Nc2ccccc2C(=O)NCc2ccco2)cc1S(=O)(=O)N1CCCCC1,>57,i
O=C(O)/C=C\C(=O)Nc1ncn[nH]1,.,i
Cn1c(CSc2nc3ccc(Br)cc3[nH]2)nc2ccccc21,.,i
CC1=C(C(=O)Nc2ccc(C)cc2)C(c2ccc(N(C)C)cc2)NC(=O)N1 (centres undefined),.,i
O=C1CCCC(=NCc2ccco2)C1,>57,i
CC(C)CCn1c(CN2CCN(Cc3ccccc3)CC2)nc2c1c(=O)n(C)c(=O)n2C,>57,i
CCOc1ccc2nc(NC(=O)C(CCSC)NS(=O)(=O)c3cccs3)sc2c1 (centres undefined),>57,i
N#CC(C(=O)Nc1cccc(Cl)c1)=C1Nc2ccccc2N1,>57,i
Brc1ccc(-c2nnc3sc(CN4CCN(c5ccccc5)CC4)cn23)cc1,>57,i
CCCCn1nnnc1SCC(=O)Nc1sc2c(c1C#N)CCCC2,>57,i

# A different layout for part of the listing above.
# Each structure is followed by: PK Bst | TsaE inh
CCCCc1nc(SCC(=O)Nc2ccc(S(N)(=O)=O)cc2)n[nH]1
    >57 | i
CC(C)N1C(=O)C2C(C(=O)NCc3ccccc3)C3C=CC2(O3)C1C(=O)NC(C)(C)C (centres undefined)
    >57 | i

# Part of the list above in order of heavy-atom count, low to high:
SMILES,PK Bst,TsaE inh
O=C(O)/C=C\C(=O)Nc1ncn[nH]1,.,i
CCCCOc1ccc(NC2=NC3(CCCC3)N=C(N)N2)cc1,>57,i
CCC/C=C(\CCC)C(NS(=O)(=O)c1cccc2cccnc12)c1ccc(-c2ccccc2)cc1 (centres undefined),.,i

# Other records follow.
SMILES,PK Bst,TsaE inh
CSCCC(Nc1ncnc2ccc(Br)cc12)C(=O)O (centres undefined),.,i
CCOC(=O)c1ccc(NC(=O)CSc2ncccn2)cc1,.,i
Cn1cccc1C(=O)N1CCC2(CCCN(Cc3ccc(C#N)cc3)C2)CC1,.,i
COCCNC(=O)C(c1ccco1)N(C(=O)Cn1nnc2ccccc21)c1cccc(C)c1C (centres undefined),>57,i
COc1ccc2c(Cl)c(C(N)=O)sc2c1,i,i
O=S(=O)(O)c1ccc2c(N=Nc3cccc4ccccc34)c(O)c(S(=O)(=O)O)cc2c1,.,i
O=C(COc1ccccc1)NCCSc1ccccc1,.,i
CCOC(=O)c1cccc(NC(=O)c2cnccn2)c1,>57,i
Cc1onc(-c2ccccc2)c1C(=O)Nc1ccccc1N1CCOCC1,>57,i
O=C(O)CCSC1=NCCN1,.,i
C[C@H]1CC[C@]2(OC1)O[C@@H]1C[C@@H]3[C@@H]4CC[C@H]5C[C@@H](O)CC[C@]5(C)[C@@H]4CC(=O)[C@@]3(C)[C@H]1[C@@H]2C,.,i
O=C(NCc1ccccn1)Nc1cccc(Cl)c1,.,i
CCOc1ccccc1C(=O)NC1CCN(Cc2nnnn2C2CCCC2)CC1,>57,i
COc1cccc(-c2cc(=O)c3cc(O)ccc3o2)c1,.,i
CC1=C(C(=O)OCC(C)C)C23C(=O)c4ccccc4C2(O1)OC(N)=C3C#N (centres undefined),>57,i
N#CC(C#N)=C(N)/C(C#N)=C/c1ccc(O)cc1,.,i
COc1ccc(N2C(=O)C(Cl)=C(Nc3c(C)n(C)n(-c4ccccc4)c3=O)C2=O)cc1,>57,i
Cc1ccc(C(=O)C2=C(O)C(=O)N(CCCn3ccnc3)C2c2ccc(OC(C)C)cc2)o1 (centres undefined),>57,i
CO[C@H]1[C@@H](OC(N)=O)[C@H](O)[C@@H](Oc2ccc3c(O)c(NC(=O)c4ccc(O)c(CC=C(C)C)c4)c(=O)oc3c2C)OC1(C)C,.,i
CS(=O)(=O)Nc1cccc(-c2ccc3ncnc(NCc4cccs4)c3c2)c1,.,i
O=C(O)CCSCc1ccccc1,.,i
COc1cccc(-c2nc(NCCN3CCOCC3)c3ccccc3n2)c1,.,i
[O-][n+]1ccc(C2CC2)cc1,>57,i
Cc1sc2c(c1C)CN(Cc1ccco1)CN2C(=O)c1ccccc1,>57,i
Nc1ccc(O)cc1,.,?
O=C(COC(=O)c1ccccn1)Nc1cccc(Cl)c1,>57,i
Cc1cc(-n2c(C)cc(C(=O)CSc3nnnn3-c3ccc(Cl)cc3)c2C)no1,>57,i
OC(COc1ccc2ccccc2c1)CN1CCN(c2ccc(F)cc2)CC1 (centres undefined),.,i
CCSc1nnc(NC(=O)CSc2nc3c(c(=O)n2-c2ccccc2OC)SCC3)s1,>57,i
O=C(O)CSCC(=O)c1ccccc1,.,i
COC(=O)C1CCN(C(=O)c2c(-c3ccccc3Cl)noc2C)CC1,>57,i
Cc1ccccc1N1C(=O)CC(Sc2nnc(-c3ccccc3)o2)C1=O (centres undefined),>25.6,.
NS(=O)(=O)c1cc2c(cc1Cl)NC=NS2(=O)=O,>25.6,i
O=C(Nc1ccc2c(c1)OCO2)c1c(F)c(F)c(F)c(F)c1F,>57,i
CCOC(=O)c1ccoc1CSCc1ccc(C(=O)OC)o1,>57,i
O=c1[nH]c(NCc2ccccc2)nc2c1CCCC2,>57,i
c1ccc(N2CC[N+]3(CCCC3)CC2)nc1,>57,i
CCOC(=O)c1c(C)c(C(=O)NCc2cccnc2)c(C)n1C,>57,i
Cc1sc2ncnc(SCC#N)c2c1C,>57,i
COc1ccc(CCNC(=O)C2CC2)cc1OC,.,i
C=CCn1c(-c2ccccc2)c[nH]c1=S,>57,i
O=c1cc(-c2ccc(O)c(O)c2)oc2cc(O[C@@H]3O[C@@H](CO)[C@@H](O)[C@@H](O)[C@H]3O)cc(O)c12,.,i
Cc1cccc(OCC(O)CN2C(C)(C)CC(O)CC2(C)C)c1C (centres undefined),>57,i
Clc1ccccc1-c1nnc2sc(C3COc4ccccc4O3)nn12 (centres undefined),>57,i
CCc1cccc(C)c1NC(=O)CSc1nnc(-c2cc3cc(Br)ccc3o2)n1CC,>57,i
Cc1ccc(S(=O)(=O)Cc2ccc(C(=O)NCCCN3CCN(C)CC3)o2)cc1,>57,i
CCN(CC)S(=O)(=O)c1ccc(OC(C)C)nc1,>57,i
CCCC(=O)Nc1ccc(N2CCN(C(=O)CCC)CC2)cc1,>57,i
O=S(=O)(c1ccccc1)c1nc(-c2ccco2)oc1N1CCOCC1,>57,i
Cc1nc(N2CCN(C(=O)c3ccc(Cl)cc3)CC2)c(C#N)c2c1COC(C)(C)C2,?,.
COc1ccc(NCc2c(O)ccc3ccccc23)cc1,.,i
C(=C\c1ccccc1)/CSc1nnc(-c2ccncc2)n1Cc1ccco1,>57,i
CCOC(=O)C1=C(C)N(C)C(=O)NC1c1ccccc1OC (centres undefined),.,i
Cc1noc(C)c1S(=O)(=O)N1CCN(Cc2ccc3c(c2)OCO3)CC1,.,i
Cc1cccc2cc(CN(CC3CCCO3)C(c3nnnn3Cc3ccco3)C(C)C)c(=O)[nH]c12 (centres undefined),>57,i
CCCCn1c(S(=O)(=O)O)nc2ccccc21,>57,i
COc1ccc(-c2oc3ccc(C)cc3c(=O)c2O)cc1OC,.,i

# The list is partial; the hit share may differ from the screen's.
